# Beta cell apopt – blocks beta cell apoptosis. protection from apoptosis, % (test concentration not listed). AID 435005. actives 0.8% (n = 300,000). INS-1E cytokine-induced death, ATP luminescence, 48 h; percent of positive-control rescue, neutral wells zero;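 active = all replicates at 75% or more, or half of them and the mean; inconclusive = half reach 75% but not the mean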;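 note: 0% = cytokine-treated negative control wells and 100% = positive control rescue; higher means more ATP so stronger rescue from cytokine killing; wells of about 40 µL received 100 nL stock; the first replicate is given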
# Beta2AR agonist – activates human beta-2 adrenergic receptor causing internalization. P07550. Am2.2-beta2AR cells, FAP receptor internalization, flow cytometry; reference of the scale not given here. response, % (no concentration beside the values). actives 0.43% (n = 340,000);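 active = response above a set limit, near 3 SD of response in nonfluorescent compounds, cut at about 42% in these data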;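 note: stock transfer was 100 nL into about 11 µL; a reference agonist was the positive control; negative values mostly stem from fluorescent compounds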
# Bfl-1 A1 inh – inhibitors of the anti-apoptotic protein A1, read as caspase activation | caspase activation, % (concentration not given with the values) | AID 2462 | actives 0.066% (n = 330,000) | MEF A1-2A-BIM cells, Caspase-Glo 3/7 luminescence, 3 h; percent of clofoctol response, vehicle zero;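 active = over half of replicate activation scores above 10%, or exactly half above 10 with the replicate mean above 10; inconclusive = replicate mean below 10 yet half the replicates above 10; inactive = over half of replicates below 10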;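 note: wells of about 30 µL received 50 nL stock; many hits fall short of the cut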
# rRNA inh HTS – inhibits bacterial ribosomal RNA function over humanized ribosomes; E. coli WT GFP vs humanized-ribosome RFP mutants, fluorescence, 24 h; active compounds read low; DMSO median 0, no signal -100; GFP signal change (wild-type ribosome), % (no concentration beside the values); actives 1.6% (n = 350,000); AID 720706;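 active = significant combined selectivity score with lowered wild-type GFP, culture density cut under 30%, mutant RFP and density less affected; inactive = any of these conditions unmet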; note: one replicate is shown; some compounds called inactive have numbers as strong as hits
# Calb FLC – C. albicans growth modulation with fluconazole; AID 1979; actives 0.57% (n = 300,000); C. albicans CaCi-2 (fluconazole-resistant clinical isolate) + fluconazole, Alamar Blue growth, 48 h; growth inhibition, % (no concentration beside the values);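 active = most replicates above 75%; inconclusive = exactly half above 75%; inactive = most below 75%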;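 note: all wells also contain fluconazole at 8 µg/ml as a sub-toxic cotreatment; 0% = median of DMSO wells and 100% = median of geldanamycin control wells; wells of about 8 µL received 7.5 nL stock; the first replicate is given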
# LANA-H2A inh – blocks KSHV LANA binding to histone H2A/H2B; cell-free LANA-H2A/H2B peptide, fluorescence polarization; inhibition, % (concentration not given with the values); actives 0.6% (n = 320,000); AID 2629; in the data active = inhibition mostly above about 10%, no sharp cut-off; inactive = mostly below about 6.7%;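 note: stock transfer was 7.5 nL into about 10 µL; 0% = median of vehicle wells and 100% = median of positive control wells; one replicate is shown; the record names a cut of 25% in any replicate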
# Target sequence (Q9QR71 whole entry, looked up): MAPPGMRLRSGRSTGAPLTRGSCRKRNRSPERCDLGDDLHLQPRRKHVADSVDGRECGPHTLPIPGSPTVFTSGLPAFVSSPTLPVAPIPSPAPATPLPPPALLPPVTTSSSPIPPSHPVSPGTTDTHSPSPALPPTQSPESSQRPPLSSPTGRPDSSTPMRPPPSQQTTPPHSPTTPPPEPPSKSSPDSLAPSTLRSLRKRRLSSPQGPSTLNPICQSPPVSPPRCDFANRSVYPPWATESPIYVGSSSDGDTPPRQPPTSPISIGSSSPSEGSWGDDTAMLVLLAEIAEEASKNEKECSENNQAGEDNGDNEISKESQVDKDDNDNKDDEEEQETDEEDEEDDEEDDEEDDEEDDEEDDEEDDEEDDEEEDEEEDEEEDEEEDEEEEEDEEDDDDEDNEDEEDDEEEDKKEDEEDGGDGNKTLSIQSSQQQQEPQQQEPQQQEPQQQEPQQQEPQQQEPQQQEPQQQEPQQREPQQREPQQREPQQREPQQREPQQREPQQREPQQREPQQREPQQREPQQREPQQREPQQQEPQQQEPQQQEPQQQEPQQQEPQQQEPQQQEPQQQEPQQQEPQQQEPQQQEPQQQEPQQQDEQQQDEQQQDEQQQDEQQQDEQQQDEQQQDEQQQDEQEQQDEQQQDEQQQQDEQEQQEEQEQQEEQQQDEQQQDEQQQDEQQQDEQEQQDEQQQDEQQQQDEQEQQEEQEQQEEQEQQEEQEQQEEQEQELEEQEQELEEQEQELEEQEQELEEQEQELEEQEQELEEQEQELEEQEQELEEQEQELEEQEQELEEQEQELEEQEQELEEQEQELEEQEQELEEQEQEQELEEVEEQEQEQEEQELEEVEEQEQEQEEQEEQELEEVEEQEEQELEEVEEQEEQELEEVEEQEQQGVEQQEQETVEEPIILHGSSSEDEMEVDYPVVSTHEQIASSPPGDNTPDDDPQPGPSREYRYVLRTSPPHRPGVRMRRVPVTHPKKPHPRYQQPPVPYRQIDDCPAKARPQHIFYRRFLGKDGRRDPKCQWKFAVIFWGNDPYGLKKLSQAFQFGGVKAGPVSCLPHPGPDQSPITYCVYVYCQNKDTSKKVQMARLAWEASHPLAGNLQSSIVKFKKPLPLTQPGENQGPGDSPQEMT
# T cruzi repl – T. cruzi replication inhibition. T. cruzi beta-gal in NIH3T3, luminescence, 90 h. inhibition, % (concentration not given with the values). actives 1.4% (n = 300,000);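 active = mean inhibition across valid replicates above about 55%, limit read from the data; inconclusive = mean below that limit but half or more replicates reach it; inactive = mean below it, under half of replicates reach it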;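 note: signal also drops with host cell toxicity which is not excluded here; 0% = plate median of DMSO wells and 100% = zero luminescence signal; higher percent means less beta-gal luminescence so fewer parasites; stock transfer was 50 nL into about 50 µL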
# ALR inh – inhibitors of human sulfhydryl oxidase ALR; P55789; purified ALR, DTT oxidation, H2O2 HRP-luminol luminescence; inhibition, % (concentration not given with the values); actives 3.8% (n = 290,000);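 active = mean and each replicate at 75% or more; inconclusive = only one of the two met; inactive = neither met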;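 note: stock transfer was 7.5 nL into about 7.5 µL; 0% = neutral wells and 100% = wells with inactivated enzyme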
# rRNA inh HTS OD600 – further read-out of rRNA inh HTS, marked with its call; OD600 change, %; measured here: OD600 growth;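 optical density of the mix in the first replicate; 0 = DMSO median and -100 = no signal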
# rRNA inh HTS RFP – recorded beside rRNA inh HTS, whose call it bears; RFP signal change, %; measured here: RFP humanized mutant strains;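 first replicate; 0 = DMSO median and -100 = no signal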
# Active calls of the source: *; ? = inconclusive; · = no result given. The list is partial, so the mix of outcomes need not match the whole.
SMILES,Beta cell apopt,Beta2AR agonist,Bfl-1 A1 inh,rRNA inh HTS,rRNA inh HTS OD600,rRNA inh HTS RFP,Calb FLC,LANA-H2A inh,T cruzi repl,ALR inh
COc1cc(NC(=O)N2CCNC2=O)cc(C(=O)Nc2cccc(C(F)(F)F)c2)c1,14.1,0.0,2.3,7.4,5.7,-0.8,2.6,-2.9,10.4,-16.4
O=C(C[n+]1ccc2c(c1)nnn2-c1ccccc1)c1ccc(Cl)cc1,3.4,-6.9,1.1,2.7,11.3,19.2,11.0,0.7,0.5,44.8
Nc1ccccc1N1CCOCC1,-0.3,-2.8,-0.6,·,·,·,-3.4,-1.0,-4.9,-27.3
O=C(CN1C(=O)c2ccccc2C1=O)OCC(=O)N1CCc2ccccc2C1,0.2,-2.7,0.3,·,·,·,4.3,2.3,3.6,-24.4
CC(C)c1cc(C(=O)Nc2ccc3c(c2)OCO3)no1,3.4,-7.1,-5.1,-3.4,0.5,-2.3,-5.9,-3.7,-1.8,·
COc1ccc(CC(=O)Nc2oc(-c3ccccc3)c(-c3ccccc3)c2C#N)cc1OC,-3.9,6.7,0.6,·,·,·,-6.7,-3.6,34.1,-2.7
Cc1cccc(S(=O)(=O)Nc2ccncc2)c1,-5.4,1.1,0.8,4.9,20.2,-1.3,-5.4,2.7,0.9,-3.2
Cc1ccc(S(=O)(=O)Cc2sc3ccccc3[n+]2C)cc1,-4.0,9.2,0.2,4.2,-4.4,9.1,-9.7,5.0,24.1,0.0
Cc1cc(C)n2nc(SCC(=O)N/N=C/c3cccc(Br)c3)nc2n1,-0.5,-7.9,0.0,2.8,5.5,1.5,-7.0,-3.3,-13.8,-8.4
C/C(=N\NC(=O)c1cccc(S(=O)(=O)N2CCCC2)c1)c1ccncc1,-0.9,-2.1,0.9,4.0,1.1,-1.7,·,-1.4,·,·
Fc1ccc(/C=C/c2nnc(-c3cccs3)o2)cc1,3.9,-3.4,-4.9,4.5,1.1,-1.4,-26.7,0.5,10.8,6.4
O=c1[nH]c2cc3c(cc2cc1CN(Cc1ccc2c(c1)OCO2)Cc1nnnn1CC1CCCO1)OCO3 (stereo unspecified),-1.8,-7.3,-0.5,·,·,·,5.6,1.0,27.2,-8.1
O=S(=O)(Nc1ccccc1Cl)c1ccc(NS(=O)(=O)c2cccs2)cc1,-6.0,1.5,0.2,-4.6,-16.9,-6.5,9.2,-1.2,0.4,-3.3
O=c1cc(Nc2ccc3c(c2)OCCO3)[nH]c(=O)n1-c1ccc(Cl)cc1,-0.4,7.0,0.3,1.9,6.0,-7.7,-14.8,-1.8,-11.8,-26.2
C=CCc1c(C)nc(C)nc1N/N=C/c1ccc([N+](=O)[O-])cc1,9.2,7.9,0.0,·,·,·,0.2,-1.8,-1.7,26.1
CC(C)N(Cc1nc(-c2ccccc2)no1)S(=O)(=O)c1ccccc1,0.3,-4.5,-0.8,-2.5,-15.1,-2.6,-2.9,4.2,11.3,-3.8
CCC(C(=O)NNC(=O)c1cnccn1)c1ccccc1 (stereo unspecified),3.7,-0.9,0.8,8.9,7.8,-2.3,15.2,1.5,9.2,-27.3
Nc1sc2c(c1C(=O)NC1CCS(=O)(=O)C1)CCCC2 (stereo unspecified),-5.3,-0.2,0.3,9.5,16.6,5.8,11.7,-1.1,2.4,-117.5
CC(=O)c1ccc(N(CC(=O)NC2CCCC2)C(=O)c2csnn2)cc1,-1.7,10.2,0.0,·,·,·,-6.3,1.1,-2.2,2.6
CCCN1CC=C2C(C#N)=C(N)C(C#N)(C#N)C(c3cc(OC)ccc3OC)C2C1 (stereo unspecified),-4.9,2.8,0.4,·,·,·,0.4,6.7,-3.0,23.7
Cn1cc(C(c2ccccn2)c2cn(C)c3ccccc23)c2ccccc21,-3.3,9.6,-0.5,·,·,·,94.3*,1.3,31.1,3.6
C/C=C(\C)CN1CCN(c2cccc(C)c2C)CC1,·,0.4,1.2,·,·,·,5.0,-5.4,-0.6,4.7
CCN(c1ccc(OC)cc1)S(=O)(=O)c1ccc2c(c1)CC(C)N2C(=O)C1CC1 (stereo unspecified),1.9,-7.4,-0.3,-5.1,-16.5,0.8,-0.9,3.5,13.1,-4.7
CCNc1nc(NCC)nc(C(=O)Nc2ccccc2)n1,-8.9,-5.6,-0.2,·,·,·,-3.3,2.9,-8.7,2.0
CCOc1ccc(NC(=O)Nc2c(C)n(C)n(-c3ccccc3)c2=O)cc1,-4.7,-5.2,0.3,7.2,24.0,-0.8,0.2,1.2,0.1,1.4
# Remaining list, next part
SMILES,Beta cell apopt,Beta2AR agonist,Bfl-1 A1 inh,rRNA inh HTS,rRNA inh HTS OD600,rRNA inh HTS RFP,Calb FLC,LANA-H2A inh,T cruzi repl,ALR inh
O=C(NNC(=S)NC(=O)c1ccccc1)c1cccnc1,0.0,-4.1,-1.4,-13.7,-34.1,-5.7,41.7,-0.3,-3.4,98.3*
Cc1cccc(/C=N/n2c(C)nc3ccccc3c2=O)c1,-0.2,7.8,0.7,2.6,11.6,-1.7,2.7,-2.4,?,·
Cc1cc(=O)[nH]c(SCC(=O)NC(c2ccccc2)c2ccccc2)n1,-25.1,1.1,-0.1,8.3,4.2,0.8,0.4,-3.0,-8.7,-5.6
O=C(Nc1cccc2ncccc12)c1ccc(F)cc1,-2.9,-2.6,1.6,5.7,6.8,-1.2,-1.8,2.6,-7.3,-8.4
CC(=O)Nc1ccc(C(=O)OCC(=O)Nc2ccc([N+](=O)[O-])cc2C(F)(F)F)cc1,5.5,-14.0,0.3,·,·,·,-3.3,3.1,-12.0,-12.6
CCOc1ccc(N2C(=O)Nc3ccc(Br)cc3C2(O)C(=O)NCCN(C)C)cc1 (stereo unspecified),-5.8,1.6,0.6,12.7,8.6,-0.5,-1.2,1.3,-1.0,-4.5
Cc1cc(OCc2cc(C(=O)N3CCN(CC4CC4)CC3)no2)cc(C)c1Cl,0.5,-14.1,0.0,-28.7,-24.2,6.8,-8.2,-4.1,20.4,-6.7
CN1CCc2c(OCC(=O)NC3CCCCC3)cccc2C1=O,0.8,-7.8,-0.2,10.4,0.5,5.6,0.6,-2.1,-8.3,-12.2
O=C(CSc1n[nH]c(-c2ccco2)n1)Nc1sc2c(c1C(=O)Nc1ccccc1)CCCC2,-0.7,-9.7,-0.4,·,·,·,7.8,-2.4,15.1,97.9*
CCCCCN(C(=O)NC(=O)Nc1cccc(C)c1C)S(C)(=O)=O,1.3,0.9,0.1,-2.0,1.2,-2.9,3.5,2.7,2.7,-4.6
O=C1Nc2cc(Cl)ccc2Nc2cscc21,0.4,-1.2,0.0,3.1,0.8,-6.5,-3.4,2.5,-6.2,·
CCC(C)N(C(=O)Cn1nnc2ccccc21)C(C(=O)NCc1ccco1)c1cccc(OC)c1 (stereo unspecified),0.1,-1.8,0.3,·,·,·,19.6,-2.7,12.7,-3.6
CN(CC(=O)Nc1ncn[nH]1)S(=O)(=O)c1cc(Cl)ccc1Cl,-1.7,-5.5,-1.0,-0.8,-3.0,1.3,1.9,-1.0,-3.6,-5.4
Cc1noc(C)c1CSc1nnnn1-c1ccc(Cl)cc1,9.6,3.4,-0.1,·,·,·,-3.4,2.1,0.3,-3.0
NC(=O)N/N=C/c1cc(Br)ccc1OCC(=O)NCc1ccccc1,3.6,0.2,?,·,·,·,-2.7,2.7,3.3,-1.7
CCn1cc(C(=O)Nn2cnnc2)c(=O)c2ccc(C)nc21,0.8,-2.4,1.4,7.1,-2.3,-6.4,-0.7,2.6,-24.2,·
COc1cccc(C(=O)COc2ccc3c(C)c(Cc4ccccc4)c(=O)oc3c2)c1,-4.2,1.3,0.1,5.4,10.8,-1.8,8.5,-1.3,-9.6,-1.9
CCn1c(SCC(=O)N2CCCCC2)nc2c(c1=O)SC(C)C2 (stereo unspecified),-3.8,-5.3,-0.1,3.1,4.3,0.6,-4.9,0.2,5.3,18.4
CNC(=O)c1[nH]cnc1C(=O)Nc1ccc(Cl)cc1,-2.7,-4.8,-0.2,16.2,23.2,9.0,1.4,-1.6,6.3,2.2
OCCC#Cc1ccc(CN2CCN(CCc3ccccc3)C(CCO)C2)cc1 (stereo unspecified),-2.2,-8.5,0.8,-1.1,-0.4,3.0,-15.5,2.7,-4.2,-6.0
Cc1nc(SCc2nc3ccccc3[nH]2)c2oc3ccc(Br)cc3c2n1,1.1,-8.9,-1.0,-12.8,-22.4,-19.2,·,-1.5,·,-10.0
Cc1cc(Br)cn2ccnc12,0.4,-3.4,0.7,·,·,·,-19.9,-1.4,-22.9,-7.1
C=CC[n+]1c(-c2ccc(C)cc2)csc1Nc1ccc(NC(C)=O)cc1,·,-5.5,·,-11.5,-16.1,-4.7,-22.9,·,2.0,·
COc1ccc(-n2nc(C(=O)NCCCN3CCCC3=O)c3c4ccccc4n(C)c3c2=O)cc1Cl,8.4,0.8,-0.4,·,·,·,10.8,-1.1,5.2,-6.2
CC(C)(C)[C@H]1C=C(C(=O)NC2CC2)O[C@@H](OCc2ccc(CO)cc2)C1,-7.2,-9.2,-0.4,-3.4,-5.3,2.3,2.3,6.2,2.7,15.6
# The listing continues.
SMILES,Beta cell apopt,Beta2AR agonist,Bfl-1 A1 inh,rRNA inh HTS,rRNA inh HTS OD600,rRNA inh HTS RFP,Calb FLC,LANA-H2A inh,T cruzi repl,ALR inh
Cc1ccc2[nH]c(C(=O)N3CCOCC3)cc2c1,-6.0,3.3,-0.7,14.7,9.8,1.2,23.3,1.8,-3.8,-10.8
CC(=O)C12CCCCC1CC1[C@@H]3CC(C)C4=CC(=O)CC[C@]4(C)C3CC[C@@]12C (stereo partly specified),·,20.9,·,4.1,12.6,-0.3,-2.7,·,4.6,·
Cc1ccc(CN2C(=O)CCC2C(=O)NCCCN2CCOCC2)cc1 (stereo unspecified),0.9,-2.8,-0.1,·,·,·,-0.8,-0.7,-5.1,-3.3
CCC(=O)Oc1ccc(C(=O)Nc2ccc([N+](=O)[O-])cc2)cc1,-1.3,0.6,-3.5,10.7,0.8,0.5,-25.9,-7.5,-12.3,-6.7
COc1c2c(cc3ccc(=O)oc13)CCO2,0.2,-5.4,0.1,14.3,11.1,4.5,-6.9,-3.8,-9.1,·
Cc1cc(C)nc(SCC(=O)N2CCC(C(N)=O)CC2)n1,-7.4,0.6,0.6,7.5,3.4,-2.1,16.3,-8.7,-2.3,-9.5
CCOc1ccccc1N1CC(C(=O)Nc2ccccc2N2CCOCC2)CC1=O (stereo unspecified),-1.2,-0.1,1.0,·,·,·,-10.2,-1.9,-6.0,-23.6
Cn1c(Cc2ccccc2)nnc1SCC(=O)NC1CC1,-4.3,0.6,-0.8,-1.7,-0.4,-2.3,-8.4,-3.8,2.7,0.6
COc1ccc(-n2ncc3c(NCC4CCCO4)ncnc32)cc1 (stereo unspecified),2.5,11.1,0.1,·,·,·,0.2,-0.1,-10.1,-8.5
